# Hsc70 = Hsc70 inhibitors, probe displacement, primary screen, biochemical, fluorescence polarization (AID 568). one-dose displacement, % at 20 µM; IC50 in µM for titrated hits. 83,000 tested, under 10 active. Hsc70 fluorescence polarization, probe displacement; higher % means a stronger effect; strong numbers were not always called active;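 active means displacement above 50% without optical interference and an IC50 on retest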;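 further: ATPase domain with a fluorescein-tagged ATP probe; 0% = vehicle and 100% = excess ADP; read after one hour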
# WNV NS2B-NS3 inh = blocks West Nile virus NS2B-NS3 protease activity; P06935; WNV NS2B-NS3 protease, fluorogenic substrate Ex360/Em465; stronger effect = lower value; z-score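 (tested at a level between 10 and 100 µM)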; 65,000 tested, 0.18% active; AID 577;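 active means z-score at -3 or under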;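 further: score is relative to mean and spread of the compound wells of a plate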
# Target sequence (P06935 1371-1501 limits assumed): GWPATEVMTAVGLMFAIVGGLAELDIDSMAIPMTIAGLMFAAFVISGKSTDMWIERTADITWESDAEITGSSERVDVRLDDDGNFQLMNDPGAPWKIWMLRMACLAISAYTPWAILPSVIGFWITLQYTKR
# Target sequence (P06935 1502-1679 limits assumed): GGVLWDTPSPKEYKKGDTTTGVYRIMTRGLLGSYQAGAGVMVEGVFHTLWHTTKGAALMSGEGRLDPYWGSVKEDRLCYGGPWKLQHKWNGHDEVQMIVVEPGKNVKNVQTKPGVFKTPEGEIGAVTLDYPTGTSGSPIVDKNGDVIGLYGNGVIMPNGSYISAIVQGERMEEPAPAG
# MT1-MMP promoter = MT1-MMP gene expression reporter suppression – cell-based, luciferase reporter, luminescence (AID 618); MT1-MMP promoter luciferase reporter cells, luminescence; calls from a first round at 10 µM; hits with a dose series show EC50 in µM; 87,000 tested, 0.62% active;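 active means over half of the reporter light lost at 10 µM or EC50 under 50 µM; inactive means the rest and hits that failed the dose series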;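 further: actives suppress MT1-MMP promoter-driven transcription so potencies describe inhibitors; HT1080 fibrosarcoma cells; overnight exposure; toxic or luciferase-blocking compounds were not removed from the actives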
# * marks the source's active call; other numbers are inactive results; i = inactive; nt = no result given; + = active, no number.
nr	smiles	Hsc70	WNV NS2B-NS3 inh	MT1-MMP promoter
1	CC1(C)C(=O)OC(C(=O)c2ccc(C(C)(C)C)cc2)C(C)(C)C1=O (stereo not given)	0.7%	nt	i
2	CCOc1ccc(C2=Nn3c(nnc3-c3ccccc3OC)SC2)cc1	-9.2%	0.09	+
3	COc1cc(NC(=O)c2ccco2)c(OC)cc1NC(=O)CSc1nnc(-c2cccs2)n1C	4.3%	-0.04	i
4	O=C(CSc1nnc(-c2ccncc2)n1CC1CCCO1)Nc1nccs1 (stereo not given)	-6.3%	nt	i
5	CCOc1ccccc1OCCCC(=O)Nc1ccc(OC)nc1	6.2%	1.8	i
6	COCc1nc(-c2cc(Br)ccc2OC)no1	-0.7%	1.5	i
7	COc1ccccc1NC(=O)c1cc2ccccc2o/c1=N\O	5.8%	0.08	i
8	CC(=O)c1ccc(N2CCN(C(=O)c3ccc(NC(=O)C4CCCO4)cc3)CC2)cc1 (stereo not given)	-9.2%	0.05	i
9	COc1cccc(NC(=O)N2CCC(C(N)=O)(N3CCCCC3)CC2)c1	2.0%	1.2	i
10	c1ccc(COCCN2CCN(CCOCc3ccccc3)CC2)cc1	-1.3%	nt	i
11	CCCCCn1c(=O)[nH]c2cc(C(=O)NCCN3CCOCC3)ccc2c1=O	2.4%	0.95	i
12	OCCNC1=NCCN1	0.5%	-3.2*	i
13	N=C1C(=O)OCC1c1cc(Cl)ccc1NC(=O)Nc1ccccc1 (stereo not given)	-1.8%	nt	i
14	Cc1cc(C)c(OCC(=O)Nc2cccc(O)c2)cc1C	0.1%	-0.37	27µM*
15	CCCn1c(NCc2ccc(N(C)C)cc2)nc2ccccc21	-0.5%	0.81	i
16	CC[C@H](C)C(=O)O[C@H]1C[C@@H](C)C=C2C=C[C@H](C)[C@H](CC[C@@H]3C[C@@H](O)CC(=O)O3)[C@H]21	0.1%	-0.27	i
17	COc1cc(NC(=O)c2ccc3c(c2)OCO3)c2ncccc2c1	1.0%	-0.43	i
18	O=P(O)(CCc1ccccc1)C(O)c1ccccc1 (stereo not given)	-3.1%	nt	i
19	NC(=O)c1sc2nccc(Nc3ccccc3)c2c1N	1.0%	-0.18	i
20	CC1=C(C#N)C(c2cccnc2)C2=C(CC(C)(C)CC2=O)N1 (stereo not given)	2.9%	1.1	i
21	CCS(=O)(=O)Nc1ccc(-c2ccc(NS(=O)(=O)CC)c(OC)c2)cc1OC	-5.6%	-0.14	i
22	CC(C)OC(=O)CSc1nnc(-c2ccc(Cl)cc2)n1N	3.0%	-1.1	i
23	O=C(O)CSCCC(=O)Nc1ccc(F)cc1	0.7%	-0.4	i
24	CCCCn1c(CNC(=O)CCC)nc2ccccc21	0.7%	-0.62	i
25	COC(=O)CC1SC(=O)NC1=Nc1ccc(C)cc1 (stereo not given)	1.9%	2.2	i
26	Cc1onc(-c2ccccc2)c1C(=O)NCc1cccs1	0.7%	nt	i
27	Cc1ccc(S(=O)(=O)Nc2c(C)nn(C)c2C)cc1	6.5%	nt	i
28	CC(=O)Nc1cccc(OC(=O)c2ccoc2C)c1	3.0%	-1.1	i
29	CC1=Nc2ccccc2NC(=O)C1Sc1nnc(C)s1 (stereo not given)	6.7%	1.3	i
30	C=CCc1ccc(OCCCCN2CC(C)OC(C)C2)c(OC)c1 (stereo not given)	-2.1%	nt	i
31	Cc1cc(C)nc(/N=c2/ssnc2Cl)c1	-0.5%	-0.62	i
32	CCOC(=O)CCNc1n[nH]c(=O)[nH]c1=O	4.1%	1.4	i

# 2 entries drawn at random from those above:
nr	smiles	Hsc70	WNV NS2B-NS3 inh	MT1-MMP promoter
32	CCOC(=O)CCNc1n[nH]c(=O)[nH]c1=O	4.1%	1.4	i
31	Cc1cc(C)nc(/N=c2/ssnc2Cl)c1	-0.5%	-0.62	i

# Continued.
nr	smiles	Hsc70	WNV NS2B-NS3 inh	MT1-MMP promoter
33	Cc1ccc(NC2=NCCCCC2)cc1	-8.9%	nt	i
34	CC1(C)CC(=O)C2=C(C1)N(Cc1ccco1)C(=O)C2(NC(=O)c1ccc(Cl)cc1Cl)C(F)(F)F (stereo not given)	-5.1%	nt	i
35	CC(=O)NC1(C(F)(F)F)C(=O)N(Cc2ccccc2)C2=C1C(=O)CC(C)(C)C2 (stereo not given)	0.7%	nt	i
36	CCCCOP(=O)(c1ccc(N(C)C)cc1)C(O)c1ccncc1 (stereo not given)	2.7%	-0.4	i
37	Cc1cc(Nc2nc3ccccc3nc2Cl)n(-c2ccc([N+](=O)[O-])cc2)n1	1.6%	nt	i
38	COc1ccc(CN2CCN(C(=O)CC(C)C)CC2)cc1OC	-6.0%	-1	i
39	N#CC1=C(N)Oc2n[nH]c(-c3ccncc3)c2C1c1ccsc1 (stereo not given)	1.1%	-0.97	i
40	CCN(CC)CCCNS(=O)(=O)c1ccc(OC)cc1	1.7%	1.4	i
41	CC(=O)c1c(C(C)=O)c(C)n(Cc2ccccc2)c1C	-5.8%	-1.3	i
42	CCCCSc1nnc(-c2ccc(NC(=O)CCc3ccccc3)cc2)n1C	-3.4%	nt	i
43	COc1cc(C2C(C#N)=C(N)Oc3cc(C)n(CCc4ccccc4)c(=O)c32)cc2c1OCO2 (stereo not given)	-5.6%	0.62	i
44	CCC(C)NC(=O)CN(c1ccc(OC)cc1)S(=O)(=O)c1ccc(NC(C)=O)cc1 (stereo not given)	-2.7%	1.1	i
45	COc1ccc(N2CCN(S(=O)(=O)c3ccc(C(=O)NCc4ccco4)cc3)CC2)cc1	-3.1%	-2.2	i
46	Cc1nc2cc(NC(=O)Nc3nccs3)ccc2n1C	4.0%	-0.71	i
47	O=S(=O)(c1ccccc1)c1nc(-c2ccccc2Cl)oc1NCCN1CCOCC1	-3.2%	nt	i
48	Cc1nn(-c2ccccc2)c(Cl)c1C(=O)Nc1nnc(C2CCCC2)s1	-5.9%	0.05	i
49	COCc1c(C(=O)OCC(=O)c2c(N)n(CC(C)C)c(=O)n(C)c2=O)oc2ccccc12	3.5%	-0.02	i
50	Oc1c(Cl)cc(Cl)c(Cl)c1Cc1c(O)c(Cl)cc(Cl)c1Cl	27µM*	nt	i
51	CN(C)c1ccc(NC(=O)CSc2nc3c(c(=O)[nH]2)CCCC3)cc1	0.3%	0.18	i
52	COc1ccc2cc(CCNC(=O)C3CCCC3)c(=O)[nH]c2c1	6.6%	-1.2	i
53	CCOC(=O)C1=C(O)/C(=C/c2cc(OC)c(OC)c(OC)c2)N=C1C	1.7%	nt	i
54	COc1ccc(CNC(=O)CS(=O)Cc2nc(-c3ccccc3C)oc2C)cc1 (stereo not given)	0.0%	-0.49	i
55	COC(=O)c1cn(CCOc2ccccc2)c2ccccc12	-0.6%	-1.4	i
56	Cc1cc(NC(=O)c2noc3c2CCCC3)no1	3.8%	2	i
57	COc1ccc(S(=O)(=O)N2CCN(C(=O)c3c(-c4ccccc4)noc3C)CC2)cc1	1.7%	nt	i
58	C=CCOC(=O)C(C#N)c1nc2ccccc2nc1N1CCN(Cc2ccc3c(c2)OCO3)CC1 (stereo not given)	-3.0%	0.76	i
59	COc1ccc(N(CC(=O)N2c3ccccc3CC2C)S(=O)(=O)c2c(C)noc2C)cc1 (stereo not given)	-11%	-0.9	i
60	O=C(Nc1ccccc1C(=O)NCCN1CCOCC1)c1ccco1	0.1%	0.61	i
61	Cc1ccc2cc3c(NC(=O)c4ccco4)nn(C)c3nc2c1	-3.2%	-0.99	i
62	CCC(=O)N(CCC1(C(C)C)CCOC(C)(C)C1)Cc1ccco1 (stereo not given)	1.5%	nt	i
63	Cc1cccc(NC(=S)NC2CC3CCCC(C2)N3CC(C)C)c1 (stereo not given)	-5.2%	nt	i
64	CS(=O)(=O)N(Cc1nnc(-c2cccs2)o1)c1ccc(Cl)cc1F	-0.4%	-0.36	i
65	COc1ccc(Cc2nnc(SCc3nc4ccccc4c(=O)[nH]3)o2)cc1	-1.7%	0.14	i
66	Cc1ccc(S(=O)(=O)NCC2CCC(C(=O)O)CC2)cc1 (stereo not given)	-2.1%	nt	i
67	O=C(c1cccs1)N(Cc1ccccn1)Cc1ccco1	-3.0%	0.92	i
68	COc1cc(-c2noc(-c3cccc(Cl)c3)n2)cc(OC)c1OC	7.2%	0.43	i
69	COc1cc(S(=O)(=O)Nc2ccccc2C)ccc1Cl	-4.2%	-0.2	i
70	CC(C)(C)c1nnc2sc(SC/C(O)=C(\C#N)c3nc4ccccc4[nH]3)nn2c1=O	-30%	0.2	i
71	CCCCOc1ccc(C(O)(CC)CCN2CCOCC2)cc1 (stereo not given)	2.3%	nt	i
72	c1ccc(CNc2ncnc3c2oc2ccccc23)nc1	4.4%	nt	i
73	Cc1ccccc1OCCSc1nnc(C)n1-c1ccccc1	-0.4%	nt	i
74	CCOC(=O)c1cc(C)sc1NC(=O)C1CCC1	-1.2%	-0.28	i
75	O=C(CCS(=O)(=O)c1ccc(Br)cc1)N1CCN(c2ccccc2)CC1	-2.4%	0.18	i
76	COc1ccc(OC)c(S(=O)(=O)Nc2cccnc2)c1	-6.7%	nt	i
77	CN1CCn2c1nc(N1CCCCC1)nc2=O	9.3%	0.59	i
78	O=C(Oc1cccnc1)c1cc(S(=O)(=O)N2CCOCC2)ccc1Cl	2.7%	nt	i
79	O=C1CCCN1CN1CCCCC1	6.3%	-1.1	i
80	Nc1nnc(-c2cccc(Cl)c2Cl)c(N)n1	-0.9%	0.5	i
81	COC(=O)c1ccccc1NC(=O)CN(Cc1ccccc1)S(C)(=O)=O	-1.7%	0.27	i
82	O=C(c1ccc(F)cc1)N1CCN(c2ncccn2)CC1	-5.8%	0.37	i
83	CCOC(=O)c1cnc(SCc2ccc(C)cc2)nc1N	-3.0%	-1.1	i
84	COc1ccc(C2CC(C(F)(F)F)n3nc(C(=O)NCCCn4ccnc4)cc3N2)cc1OC (stereo not given)	8.9%	0.18	i
85	Cc1ccc(S(=O)(=O)Nc2ccccc2C(N)=O)cc1	-5.6%	0.45	i
86	Nc1cc(=O)nc(SCC(=O)NC2CCCCC2)n1-c1ccccc1	1.3%	-1.1	i
87	Cc1cc(OCC(=O)NCC(C)C)cc(C)c1Br	-7.2%	nt	i
88	Cc1cccc(N2CCN(c3nc4ccc(Cl)cc4n4cnnc34)CC2)c1C	-2.2%	1.4	i

# (list continues)
nr	smiles	Hsc70	WNV NS2B-NS3 inh	MT1-MMP promoter
89	COC(=O)C1C2C=CC3(CN(c4cccc(Cl)c4)C(=O)C13)O2 (stereo not given)	4.8%	1.1	i
90	O=C(c1ccccc1OCc1ccccc1Br)N1CCN(c2ncccn2)CC1	1.3%	-1.1	i
91	Cc1cccc(N(CC(=O)NC2CCCCC2)C(=O)c2c(C)noc2C)c1	1.0%	1.7	i
92	O=C(COC(=O)c1cncc(Br)c1)NCc1ccco1	8.0%	0.47	i
93	CC1CCC(NC(=O)Cn2cc3c(n2)CCCC3)CC1 (stereo not given)	-1.6%	-0.07	i
94	O=C(Nc1ccccc1)N1CCN2C(=O)c3ccccc3C12c1ccccc1 (stereo not given)	2.9%	-0.74	i
95	CCC(C)C(NC(=O)OC(C)(C)C)C(=O)NC(CC(C)C)C(N)=O (stereo not given)	2.4%	0.41	i
96	COc1ccc2nc(N3CCC(C)CC3)c(C#N)cc2c1	4.2%	-0.43	i
97	Oc1ccc(-c2[nH]ncc2-c2cccc3cccnc23)c(O)c1	-3.6%	-0.64	i
98	O=C(c1cc(-c2ccco2)on1)N1CCOCC1	-9.1%	0.61	i
99	N#Cc1ccc(OCc2nnc(SCC(=O)c3ccccc3)n2-c2ccccc2)cc1	2.3%	nt	i
100	Cc1ccc(NC(=O)Nc2ccccc2C#N)c(Cl)c1	5.6%	nt	i
101	CCOc1ccc(N2CC(=O)N/C2=N\c2nc(C)cc(C)n2)cc1	-1.1%	-0.79	i
102	COC(=O)c1cn(CC(=O)N2C(C)CCCC2C)c2ccccc12 (stereo not given)	5.3%	nt	i
103	O=C(Nc1ccc2c(c1)OCO2)c1ccc(COc2ccc3c(c2)CCC3)o1	3.9%	-0.37	i
104	CC(C)Cn1c2c(c(O)c(C(=O)Nc3ncccc3O)c1=O)CCCC2	0.9%	0.04	i
105	COc1ccc(-c2csc(NC(=O)c3cccc(S(=O)(=O)N4CCN(C)CC4)c3)n2)cc1	5.5%	nt	i
106	O=C1CCCC2=C1C(c1ccc(Cl)cc1)N1C(=O)CCSC1=N2 (stereo not given)	-2.2%	nt	i
107	O=C(COc1ccccc1)N1CCN(C(=O)c2cccs2)CC1	1.7%	-1.2	i
108	CC1=NOC(=O)/C1=C\c1ccc(-c2cccc(Cl)c2)o1	-3.5%	nt	i
109	COc1ccc(OC)c(S(=O)(=O)Nc2ccc(C)c(C)c2)c1	5.7%	nt	i
110	CCN1CCN(CC(=O)Nc2cccc(C)c2)C(=O)C1=O	1.6%	-1	i
111	COc1ccc(S(=O)(=O)NCCSCc2ccco2)cc1Cl	8.1%	1.1	i
112	CCn1c(SCC(N)=O)nc2ccccc2c1=O	-7.0%	-0.87	i
113	CCOCCCNC(=O)Cn1cc2c(n1)CCCCC2	-2.7%	-0.18	i
114	CCOc1cc(C(=O)NC(C)c2ccncc2)cc(OCC)c1OCC (stereo not given)	-12%	-0.99	i
115	COC(=O)c1sccc1NC(=O)c1ccc(OC)cc1	-0.1%	-0.64	i
116	COc1cc(C(=O)Nc2ccccc2N2CCN(S(C)(=O)=O)CC2)cc(OC)c1OC	0.5%	-0.02	i
117	Cc1cccc(-c2c3c(=O)n(C)c(=O)n(C)c3cn2C(C)(C)C)c1	-2.1%	-1.4	i
